GLA inh pH 4.5 = inhibitors of human alpha-galactosidase A at pH 4.5; activity change, negative = inhibition, % at 105 µM; AID 1467; purified enzyme, 4-MU-alpha-Gal fluorescence, pH 4.5; 230,000 tested, under 10 active; inconclusive = small, poorly fitted or top-dose-only inhibition, or a rising curve; inactive = flat fitted curve, though single readings scatter; no compound was filed as active;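 note: 0% = full activity with enzyme and -100% = basal without enzyme; dose as in the result columns while the protocol names 77 µM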
Target sequence (P06280 whole entry, looked up): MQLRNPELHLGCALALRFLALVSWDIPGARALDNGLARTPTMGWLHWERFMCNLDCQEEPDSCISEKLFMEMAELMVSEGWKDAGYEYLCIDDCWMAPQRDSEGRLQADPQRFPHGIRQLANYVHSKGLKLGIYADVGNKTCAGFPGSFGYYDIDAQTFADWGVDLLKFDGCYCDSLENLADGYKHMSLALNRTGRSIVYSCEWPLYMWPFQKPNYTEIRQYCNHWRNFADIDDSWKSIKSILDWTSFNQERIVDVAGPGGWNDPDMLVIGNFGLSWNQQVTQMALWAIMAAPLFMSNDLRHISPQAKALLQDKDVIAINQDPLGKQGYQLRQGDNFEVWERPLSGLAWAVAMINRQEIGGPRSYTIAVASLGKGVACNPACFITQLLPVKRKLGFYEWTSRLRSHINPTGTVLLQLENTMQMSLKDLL
miR-21 reporter = raises the signal of a miR-21 reporter; HeLa miR-21 FLuc reporter, luciferase, 48 h; Potency, µM (series often up to 38.3 µM), for inactives: at the highest dose reporter change, positive = more light; 340,000 tested, under 10 active; AID 2288; active = well fitted rising curve with a large enough effect; inconclusive = small, poorly fitted or top-dose-only effect; inactive = no such curve, though single readings can be large or run the other way;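 note: % of control where 0% means no effect; miR-21 action dims this reporter so a rising signal means less miR-21 action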
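HeLa miR-21-FLuc reporter line, endogenous miR-21; 2000 cells/well in DMEM/10% FBS; compound titration up to ~40uM final, 48 h, 37 degree Celsius; luciferase detection reagent, 15 min lysis, CCD luminescence.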
Rango release inh = inhibitors of RanGTP-induced Rango-importin beta complex dissociation | Biochemical FRET Rango-importin beta, RanGTP-induced dissociation | Potency, µM (titrated, usually from 46.1 µM), for the others: top-dose activity change, negative = inhibition | hit rate 0.071% among 340,000 | AID 540253; active means falling FRET ratio curve, often poorly fitted, with flat reads before Ran was added; inconclusive means other falling curves, or compound fluorescence or quenching; inactive means flat or rising ratio curve;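 note: potency is the fitted concentration of half-maximal effect; % of control where 0% means no effect; nearly all actives have a fitted effect of over 45% in size; -100% = wells without RanGTP and RCC1; the record marks most hits as doubtful in a second field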
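Rango (0.1 uM)–importin beta (0.25 uM) complex; RanGTP-RCC1 trigger; 45 min RT; CFP/YFP FRET read.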
Rango-impB inh = Rango-importin beta binding inhibition. Q14974. Rango CFP/YFP FRET sensor + importin beta, 45 min. Potency, µM (series often up to 92.2 µM), for inactives: at the highest dose inhibition of complex formation. hit rate 0.031% among 340,000; active = rising FRET ratio curve, often small or poorly fitted; inconclusive = mostly compound fluorescence or quenching in the first reads; inactive = flat curves in all reads;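 note: potency is the fitted concentration of half-maximal effect; 0% = DMSO wells and 100% = buffer wells lacking importin beta; nearly all actives have a fitted effect of over 15% in size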
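FRET biosensor Rango (snurportin 1 IBB between N-terminal EYFP and C-terminal Cerulean), 50 nM in PBS/1 mM DTT/0.02% Tween-20/0.1% BSA, preincubated 5 min RT with compound; 0.125 microM importin beta added, 45 min RT, CFP/YFP FRET ratio read.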
Numbers without * were called inactive; ? = inconclusive; nt = not tested or not shown; & = joins results of further samples. Some of the compounds tested. The share of hits here may be higher or lower than overall.

The first two compounds, to show the layout:
GLA inh pH 4.5 | miR-21 reporter | Rango release inh | Rango-impB inh | Compound
nt | nt | -19.6% | -1.0% | COc1cc(OC)c2c(-c3cccc(-c4ccoc4)c3)cc(=O)oc2c1
? | 0.0% | -12.0% | -1.2% | O=C(COC(=O)CCC(=O)c1cccs1)NC1CC1

This part in full, from the first entry:
GLA inh pH 4.5 | miR-21 reporter | Rango release inh | Rango-impB inh | Compound
nt | nt | -19.6% | -1.0% | COc1cc(OC)c2c(-c3cccc(-c4ccoc4)c3)cc(=O)oc2c1
? | 0.0% | -12.0% | -1.2% | O=C(COC(=O)CCC(=O)c1cccs1)NC1CC1
0.5 | 22.1% | -10.8% | 0.1% | O=C(NC1CC1)C1=C[C@H](c2csc3ccccc23)C[C@H](OCc2ccc(CO)cc2)O1
-3.7 | -30.6% | -0.9% | 5.3% | CC1CCN(C(=O)c2ccc3c(Cl)c4c(nc3c2)CCCC4)CC1
2.4 | -3.4% | 16.6% | -3.5% | CC(=O)c1cc2c(cc1NC(=O)c1cccc(S(=O)(=O)N3CCN(C)CC3)c1)OCO2
nt | -0.3%&-11.6% | 0.1% | 1.2% | CCC(=O)Nc1nnc(S(=O)(=O)N2c3ccccc3CC2C)s1 (centres undefined)
6.0 | ? | 15.6% | 46.1µM* | CCCCN1/C(=C/c2ccc3ccccc3[n+]2CC)Sc2ccccc21
nt | nt | 22.1% | ? | CCCCn1c(N)c(N(CCOC)C(=O)c2ccc(-c3cccc(C(F)(F)F)c3)o2)c(=O)[nH]c1=O
-3.5 | -2.4% | -0.3% | -1.2% | CC(=O)N1N=C(c2ccncc2)OC12CCCC2
nt | nt | 5.5% | 1.2% | CCC(Oc1ccccc1)C(=O)Nc1cc(Cl)ccc1-n1cncn1 (centres undefined)
nt | -21.7% | -0.4% | -1.7% | Cc1cccc(-c2noc(CNS(=O)(=O)c3ccccc3)n2)c1
nt | nt | -26.3% | -1.8% | COc1ccc(S(=O)(=O)Nc2ccc(Nc3ccccc3)cc2)cc1
nt | nt | -3.5% | ? | CC1CCC(NC(=O)COC(=O)CCC(=O)c2ccc(Cl)s2)CC1 (centres undefined)
5.2 | -1.5% | -0.4% | 0.5% | O=C(O)c1ccc(/C=N\Nc2ccc(S(=O)(=O)N3CCOCC3)cc2[N+](=O)[O-])cc1
-0.5 | -2.6% | -17.6% | 6.7% | COc1ccc(S(=O)(=O)Nc2ccc(C)cc2)cc1OC
nt | -22.1% | -3.4% | -4.1% | COc1cccc(NC(=O)c2cnc[nH]2)c1
nt | nt | 5.7% | -1.9% | CN(C(=O)c1ccc(S(=O)(=O)N2CCCCC2)cc1)C1CCS(=O)(=O)C1 (centres undefined)
22.0 | -57.7% | 18.9% | -4.2% | COc1ccc(-c2nc3ncccn3c2Br)cc1
nt | nt | -8.0% | 3.9% | O=C(COc1ccccc1)NCC(=O)N1CCCC(C(F)(F)F)C1 (centres undefined)
-13.5 | -28.3% | 34.8% | 0.0% | C/C(=N/Nc1cc(-c2ccccc2)nc(-c2ccccc2)n1)c1ccc(O)cc1
-3.1 | -2.0% | -1.1% | -0.5% | O=C(Cn1ccc(=O)[nH]c1=O)Nc1ccc(C(=O)O)c(O)c1
1.3 | -2.7% | 16.0% | -2.2% | Cc1cccc(NC2=NC(C)(C)N=C(N)N2)c1C
4.3 | -0.3% | 4.2% | 5.8% | CCOC(=O)CCCCC(=O)c1[nH]c(=O)[nH]c1C[n+]1ccc(C)cc1
4.3 | ? | 3.5% | -0.2% | C/C(CC(=O)Nc1cccnc1)=N\NC(=O)c1ccc([N+](=O)[O-])c(Cl)c1
nt | -14.3% | ? | -2.0% | COc1ccc(NC(C)=O)cc1S(=O)(=O)NC(Cc1ccccc1)C(=O)NCc1ccccc1C (centres undefined)
14.6 | -13.1% | 4.1% | -3.3% | O=C(/C=C\c1cn(-c2ccccc2)nc1-c1ccccc1)Nc1nccs1
-25.7 | 0.6% | 4.9% | -0.3% | Cc1ccc(S(=O)(=O)/N=C(/Nc2c(C)n(C)n(-c3ccccc3)c2=O)c2ccc(Cl)cc2)cc1
nt | 1.1% | 1.9% | -2.2% | CCOP(=O)(c1ccc(N(C)C)cc1)C(O)c1ccc(OC)cc1 (centres undefined)
3.8 | -3.1% | -14.8% | -2.6% | Cn1c(=O)[nH]c(=O)c2c1nc(Br)n2C/C=N/Nc1ccccc1
2.6 | -45.2% | 1.7% | -0.2% | COc1cccc(NC(=O)c2ccn(C)n2)c1
8.5 | -1.4% | -8.8% | -4.8% | Cc1c(Cl)cccc1NC(=S)NN
-5.0 | -1.3% | -17.1% | ? | CN1CCN(C(=O)CC2C(=O)NCCN2Cc2ccc(-c3ccccc3)cc2)CC1 (centres undefined)
-23.5 | 2.2% | 1.5% | -4.1% | CCN(CCO)c1cc(Cl)nc(SC)n1
-6.3 | -5.5% | 2.0% | -3.4% | O=C1CCCc2nc3c(cc21)C(O)Oc1ccccc1-3 (centres undefined)
nt | 0.1% | -1.0% | -1.7% | COc1ccc(NC2CCCN(C(=O)c3cccnc3SC)C2)cc1OC (centres undefined)
-0.2 | -1.9% | -5.1% | -1.2% | CCCCNC(=O)OCCNC(=O)Oc1cccc(C)c1
-7.5 | 2.6% | -4.6% | 2.0% | COC(=O)CCC(=O)NNC(=O)c1ccc([N+](=O)[O-])cc1
-0.2 | 0.2% | 3.5% | 2.7% | CN(CC(=O)Nc1cccc2ccccc12)C(=O)c1cccc(S(=O)(=O)N(C)C)c1
nt | nt | 0.0% | -0.2% | COc1cc(C)ccc1OCC(=O)OCC(=O)c1ccc[nH]1
nt | -38.9% | -3.4% | 4.6% | COC(C(=O)N1CCC(n2nccc2NC(=O)C2CC2)CC1)c1ccccc1 (centres undefined)
nt | 4.2% | -12.2% | 5.0% | NC(=O)c1nsc(C(=O)N(Cc2ccc(F)cc2)C(C(=O)NCC2CCCO2)c2ccc(F)cc2)c1N (centres undefined)
-14.8 | -17.8% | ? | ? | CCSC1=NSC2=NC(=O)/C(=C\c3coc4ccccc4c3=O)C(=N)N12
nt | -7.0% | -16.3% | 0.5% | c1csc(-c2nc(NCCCN3CCOCC3)c3ccccc3n2)c1
nt | 2.1% | 13.4% | 3.0% | CC(Sc1nc2ccc(C(=O)c3ccccc3)cc2[nH]1)C(=O)O (centres undefined)
4.4 | -5.0% | 0.2% | 0.0% | COC1CCN(C(=O)c2ccc(OC3CCN(Cc4ccccn4)CC3)cc2)CC1
? | -11.8% | 3.6% | 2.2% | O=c1c([N+](=O)[O-])cc(C(F)(F)F)cn1Cc1cccc(Cl)c1
nt | -13.8% | -12.5% | 1.0% | O=C1NC(=S)N/C1=C/c1ccc2ccccc2c1
-8.5 | 0.0% | ? | ? | C=CCn1c(-c2oc3nc(-c4ccccc4)cc(-c4ccccc4)c3c2N)n[nH]c1=S
nt | nt | -3.0% | -0.7% | O=C(CCCl)N1c2ccccc2C=Cc2ccccc21
-2.3 | 10.6% | ? | ? | O=c1c2ccccc2c(C=Nc2cccc(O)c2)c(O)n1-c1ccc2c(c1)OCO2

Carrying on:
GLA inh pH 4.5 | miR-21 reporter | Rango release inh | Rango-impB inh | Compound
-5.1 | -5.3% | 25.3% | -1.2% | Cc1ccc(NC(=S)N(CCCN2CCOCC2)Cc2ccccn2)cc1Cl
nt | 27.0% | 0.6% | ? | Cc1c(C)n(Cc2ccc(Cl)cc2)c2ccc(C(=O)NCCCN3CCOCC3)cc12
nt | -3.7% | 0.4% | 0.6% | CC1CCN(c2ccccc2NC(=O)c2ccc(Br)o2)CC1
-15.8 | -1.4% | 3.6% | 0.5% | Cc1ccc(C(=O)NCc2ccc(N3CCN(C(=O)OC(C)(C)C)CC3)cc2)cc1
-1.0 | nt | 8.7% | ? | C=CC(C)(O)CCC=C(C)C (centres undefined)
6.6 | 2.3% | -2.2% | -1.8% | O=C(Nc1nnc(C2CC2)s1)c1ccc(S(=O)(=O)c2ccccc2)cc1
-0.8 | -10.7% | -21.6% | -2.7% | O=C(NCC#CCOCc1ccccc1)c1ccccc1
? | -7.0% | ? | ? | CCC12OC(=N)C(C#N)(C1C)C(C#N)(C#N)C(c1ccccc1)O2 (centres undefined)
-3.2 | -36.9% | ? | ? | COc1ccc(/C(N)=N/OC(=O)Cc2cccs2)cc1OC
1.0 | 7.8% | 3.0% | 6.8% | CC1=C(C#N)C2C(/C1=N/O)C2(C)C (centres undefined)
4.4 | -12.7% | -0.7% | 0.2% | CCCCCCn1c(=O)[nH]c2c(c1=O)CCC2
-6.6 | -48.1% | -17.4% | 6.6% | COc1ccc(N=C2SCC(c3ccccc3)=NN2C)cc1
-0.9 | -0.4% | 19.1% | -3.8% | N#CCCn1cc(C(=O)O)c(-c2cc3ccccc3o2)n1
nt | -4.1% | -0.1% | 0.4% | CCN1CCN(CCC(=O)Nc2ccc(C)cc2)CC1
nt | -2.9% | -0.3% | -0.4% | CCc1ccccc1NC(=O)NCc1cccnc1
4.2 | -6.6% | 8.4% | -0.1% | CC(=O)Nc1ccc(N2C(=O)CC(N3CCN(Cc4ccc5c(c4)OCO5)CC3)C2=O)cc1 (centres undefined)
nt | nt | 14.8% | -1.3% | NC(=S)NN=C1CCCCCCCCCC1
? | -1.5% | ? | ? | CCOc1ccc(C2OC34CCCCC3C(C#N)(C#N)C2(C#N)C(=N)O4)cc1OC (centres undefined)
-1.5 | 0.3% | -21.3% | 3.1% | O=C(Nc1ccccc1)c1ccccc1C(=O)N1CCCCC1
-2.7 | -1.3% | -1.9% | -1.1% | CCCCn1nnnc1SCC(=O)N1CCN(C(=O)c2ccco2)CC1
nt | 3.7% | 3.1% | -0.1% | O=C(NCc1cc([N+](=O)[O-])ccc1O)c1cccnc1Sc1ccccc1
-1.0 | 2.0% | -9.1% | 3.0% | O=C(Cc1csc(N2CCOCC2)n1)N/N=C/c1cccc(O)c1
6.9 | -1.7% | 0.3% | 2.7% | CC(=O)Nc1c(N)c2ccccc2oc1=O
-3.8 | -2.7% | 0.5% | 4.5% | CCCc1nnc(SCC(=O)N2CCCCC2C)n1CCOC (centres undefined)
-4.2 | -0.4% | 15.8% | -2.5% | Cc1ccc2oc(=O)c3cnn(CC(=O)N(CCC(C)C)Cc4ccco4)c3c2c1
nt | nt | -10.2% | -0.4% | CC1CCC2(CC1)NC(=O)N(CC(=O)Nc1ccc3[nH]c(=O)[nH]c3c1)C2=O (centres undefined)
nt | -2.8% | ? | 0.5% | COc1cc(/C=C2\C(=N)N3N=C(S(C)(=O)=O)SC3=NC2=O)ccc1OC(=O)c1cccs1
5.8 | -7.3% | ? | ? | C/C(=N\Nc1ccc([N+](=O)[O-])cc1)c1ccc(N2CCOCC2)cc1
nt | -0.8% | 0.2% | ? | CC(=O)Nc1c(-c2cc(=O)oc3cc(C)ccc23)oc2ccccc12
5.6 | -7.0% | 1.3% | -1.7% | CCOC(=O)C1CCCN(C(=O)c2ccc(OC)c([N+](=O)[O-])c2)C1 (centres undefined)
-0.6 | -3.8% | -0.4% | 1.3% | CCn1cc(C(=O)OCC(=O)c2cc(C)n(-c3cccc(C(F)(F)F)c3)c2C)c(=O)c2ccc(C)nc21
-1.6 | -3.7% | -0.2% | -4.0% | CCOC(=O)C1CCN(C2=C(NS(=O)(=O)c3ccc(Cl)cc3)C(=O)c3ccccc3C2=O)CC1
2.8 | -0.4% | -0.9% | 0.2% | CCN(CC)Cc1nc2sc(C)c(C)c2c(=O)[nH]1
2.3 | -2.1% | 0.8% | 0.8% | COc1ccc(/C=C/C(=O)OCn2c(SC)nnc(C)c2=O)cc1OC
nt | -12.8% | 26.6% | -0.8% | Fc1ccccc1-c1nnc2ccc3ccccc3n12
0.3 | 7.2% | 1.1% | 0.1% | COC(=O)c1[nH]c2cccc(OC)c2c1NC(=O)CN1CCN(c2cccc(OC)c2)C(C)C1 (centres undefined)
nt | 12.9% | -0.1% | -0.7% | COc1cccc(CNC(=O)CCS(=O)(=O)c2ccc3c(c2)NC(=O)C(C)S3)c1 (centres undefined)
9.4 | -3.3% | -0.8% | -1.4% | Cc1nc(Cl)c(Cl)n1CCOc1ccccc1
4.4 | 0.0% | 0.8% | -1.8% | C#CCNC(=O)C1=C[C@@H](c2coc3ccccc3c2=O)C[C@@H](OCCCCO)O1
4.1 | 0.4% | 0.1% | 8.2% | NC(=O)c1cnn2c1NC(c1ccc(F)cc1)CC2C(F)(F)F (centres undefined)

Bioassay records as filed in PubChem.
